Assay outcomes (PubChem)
TRPML1 blocker: qHTS for Inhibitors of the Human Mucolipin Transient Receptor Potential 1 (TRPML1); Mucolipin-1 (Homo sapiens), Q9GZU1; TRPML1-inducible cells, Ca2+ dye fluorescence, FDSS; stronger effect = lower value; inhibition of EC80 agonist-evoked calcium signal; activity change, negative = inhibition, % (concentration not given with the values); 390,000 compounds, 0.02% hits; in the data active means activity change below about -50%; inconclusive means about -30% to -50%; inactive means above about -30%;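 note: stimulus is agonist 54-4 at its EC80 concentration; % is set by controls: 0 for no effect and ±100 for the full control effect; the text of the record puts the active cut at -80%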
Target sequence (Q9GZU1 whole entry, looked up): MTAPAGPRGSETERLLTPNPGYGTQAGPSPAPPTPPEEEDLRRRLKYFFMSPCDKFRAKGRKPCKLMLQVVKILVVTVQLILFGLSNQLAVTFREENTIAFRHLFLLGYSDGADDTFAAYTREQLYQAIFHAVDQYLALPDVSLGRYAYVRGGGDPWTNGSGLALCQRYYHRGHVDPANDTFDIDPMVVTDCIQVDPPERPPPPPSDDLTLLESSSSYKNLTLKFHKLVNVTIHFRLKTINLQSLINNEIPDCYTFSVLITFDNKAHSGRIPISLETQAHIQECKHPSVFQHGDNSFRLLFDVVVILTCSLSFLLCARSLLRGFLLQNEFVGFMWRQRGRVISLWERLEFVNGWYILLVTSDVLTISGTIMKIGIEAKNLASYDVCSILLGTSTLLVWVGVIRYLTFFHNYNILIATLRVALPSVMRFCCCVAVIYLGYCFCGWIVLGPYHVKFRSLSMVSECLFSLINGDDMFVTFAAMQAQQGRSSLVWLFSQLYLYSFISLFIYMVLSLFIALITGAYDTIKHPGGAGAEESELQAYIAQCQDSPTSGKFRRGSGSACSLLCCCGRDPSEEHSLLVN
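Calcium fluorescence in TRPML1-DL cells induced overnight with Tet: a 110 s read after compound pin addition, then a 110 s antagonist read after challenge with 54-4 at 4 uM final (EC80).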
ClpP mod: qHTS Assay for Activators of ClpP. ATP-dependent Clp protease proteolytic subunit (Bacillus subtilis (strain 168)), P80244. purified B. subtilis ClpP, FRET peptide cleavage, 20 min. Potency, µM (titrated, usually from 57.5 µM), for the others: at the highest dose activity change, negative = active. 340,000 compounds, 1.9% hits. AID 651965, 2013; active = well fitted falling curve with a large enough effect; inconclusive = small, poorly fitted or top-dose-only effect; inactive = no such curve, though single readings can be large or run the other way; note: potency is the fitted concentration of half-maximal effect; the source files actives as falling curves though it sought activators and does not explain the sign; nearly all actives have a fitted effect of over 65% in size; many hits overshoot -100%
Target sequence (P80244 whole entry, looked up): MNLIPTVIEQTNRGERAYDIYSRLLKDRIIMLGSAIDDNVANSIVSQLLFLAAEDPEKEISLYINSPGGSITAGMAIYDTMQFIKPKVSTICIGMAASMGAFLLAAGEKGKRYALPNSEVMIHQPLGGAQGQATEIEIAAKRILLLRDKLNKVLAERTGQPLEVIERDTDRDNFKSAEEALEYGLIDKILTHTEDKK
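Purified B. subtilis ClpP, 10 microg/mL final in Tris/HCl pH8 with KCl, BSA, glycerol and Tween-20, cleaved an Abz/nitrotyrosine-quenched decapeptide. Fluorescence (ex 320, em 430) was read at 0 and 20 min at room temperature. Delta was normalized to 5.8 microM ADEP and DMSO/no-enzyme controls.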
The depositor's hits bear a star; ? = inconclusive. These rows are one share of the data (hit frequency here may not be typical).

| mol | TRPML1 blocker | ClpP mod |
| --- | --- | --- |
| Cn1c(=O)cc(OCC(=O)N2CCN(c3ccccc3)CC2)c2ccccc21 | -5 | -1.1% |
| COc1ccc(CC2C(=O)Nc3ccc(Br)cc32)cc1OC (stereo not drawn) | -5 | 1.3% |
| O=C(Nc1ccc(Br)cc1F)N1CCC2(CC1)Oc1ccccc1C(=O)N2Cc1ccccc1F | 48 | 0.9% |
| Cc1ccc(CN2CCCn3nc(C(=O)NCc4ccc(N(C)C)cc4)cc3C2=O)cc1 | -3 | -0.9% |
| CC(=O)Nc1cc(C(=O)NCc2ccc(F)cc2Cl)ccc1Sc1ccc(Cl)cc1 | 65 | -9.4% |
| COc1ccc(N2CCN(C(c3ccccc3)c3sc4nc(-c5ccco5)nn4c3O)CC2)cc1 (stereo not drawn) | -6 | 0.7% |
| Cc1cccc(N2C(=O)CSC23C(=O)N(CC(=O)NCc2ccccc2Cl)c2ccccc23)c1 (stereo not drawn) | -7 | -7.5% |
| Cc1ccc(CNc2ccc3cc(S(=O)(=O)N4CCCCC4)ccc3n2)cc1 | 45 | 3.8% |
| Cc1c2cnn(CC(=O)NC(C)C)c(=O)c2c(C)n1Cc1ccccc1Cl | 5 | -29% |
| CN(C(=O)c1cc2nc(-c3ccc4c(c3)OCO4)cc(C(F)(F)F)n2n1)c1ccc(OC(F)(F)F)cc1 | 3 | 0.3% |
| CCOc1ccc(CCNC(=O)c2cnc3c(-c4ccc(F)cc4)c(C)nn3c2C)cc1OCC | -6 | 8.6% |
| CCOC(=O)c1ccc(NC(=O)CN2C(=O)c3cccnc3Sc3ccccc32)cc1 | -29 | -24% |
| Cc1ccc(CNC(=O)Cn2c(-c3cccs3)cc3cc(Cl)ccc32)cc1 | -7 | ? |
| CC(C)(C)c1ccc(C(=O)NC2(C(F)(F)F)C(=O)Nc3c2c(=O)[nH]c(=O)n3-c2ccccc2)cc1 (stereo not drawn) | -6 | -1.0% |
| COC(=O)c1ccc2nc(C)cc(Nc3cccc(Cl)c3C)c2c1 | 15 | 37% |
| COc1ccc(C2=Nc3ccccc3NC(=O)C2N(C(=O)c2cnc(C)cn2)c2ccc(N3CCOCC3)cc2)cc1 (stereo not drawn) | 39 | -0.8% |
| O=C(CSc1nc2c(oc3ccccc32)c(=O)n1Cc1ccco1)Nc1ccccc1 | -19 | -0.1% |
| CCCCC[C@@H]1[C@@H]2C(=C(OCC)C[C@@H]3C(=O)N(c4ccccc4)C(=O)[C@H]23)[C@H](c2ccccc2)N1S(=O)(=O)c1ccc(C)cc1 | -24 | -3.0% |
| CCCCn1cc(S(=O)(=O)c2ccc(F)cc2)c(=O)c2ccccc21 | -7 | -1.2% |
| Cc1cccc(-c2nc3c4ccccc4nc(NCCc4ccccc4)n3n2)c1 | 77 | -8.4% |
| CC(C)c1ccc(NC(=O)C2CCCN(S(=O)(=O)c3ccc4[nH]c(=O)oc4c3)C2)cc1 (stereo not drawn) | -14 | -6.2% |
| CCCc1cc(=O)[nH]c(SCc2nc(-c3ccc(OC)cc3)no2)n1 | -6 | 0.9% |
| COc1ccc(CCNC(=O)CCc2c(C)c3cc4c(C)c(C)oc4cc3oc2=O)cc1OC | -10 | -23% |
| COc1cc(CNCCSc2nnnn2C)ccc1OCc1ccccc1 | 0 | -0.6% |
| COc1ccc(-c2c(C)nn3c(C(F)(F)F)cc(-c4ccccc4)nc23)cc1 | -1 | 0.3% |
| CCOC(=O)C1(C)C=C(Nc2ccc(C(=O)O)cc2)C(=O)N1c1ccc(C(=O)O)cc1 (stereo not drawn) | -21 | -4.6% |
| COc1ccccc1-c1noc(-c2ccc(NC3CCCCC3)c([N+](=O)[O-])c2)n1 | 5 | 0.1% |
| CC(=O)OCc1cnc(C)c2oc(=O)c(C(=O)Nc3ccc(C)cc3Cl)cc12 | 14 | -4.4% |
| O=C1N(Cc2ccccc2)c2ccccc2C1(O)c1c[nH]c2ccccc12 (stereo not drawn) | 10 | -0.2% |
| COC(=O)c1sccc1S(=O)(=O)N(CC(=O)Nc1ccccc1)c1ccccc1 | 12 | 1.6% |
| Cc1nc2ccn(Cc3ccco3)c(=O)c2cc1C(=O)NCc1ccc(F)cc1 | -4 | 4.3% |
| CCOC(=O)c1ccc(N2C(=O)c3n[nH]c(-c4ccco4)c3C2c2ccc(OCC)cc2)cc1 (stereo not drawn) | 3 | -11% |
| O=C(c1ccc(F)cc1)n1nc(-c2ccc(Cl)cc2)nc1NCc1ccco1 | 36 | -1.9% |
| C=CCC(CC=C)(CNC(=O)C(=O)Nc1cc(C)ccc1OC)c1ccc(OC)c(OC)c1 | 23 | -1.3% |
| CCOC(=O)c1ccc(Nc2c(-c3cccc(O)c3)nc3nc[nH]n23)cc1 | 32 | 2.2% |
| O=C(c1ccccc1)N(Cc1ccco1)Cc1cccs1 | -22 | -2.0% |
| CCOc1ccc(CC(=O)NCCS(=O)(=O)N2CCN(c3ccccc3OC)CC2)cc1 | -5 | -1.8% |
| Cc1nnc(N2CCCC(C(=O)NCCN(C)C)C2)c2nn(-c3ccccc3)c(C)c12 (stereo not drawn) | -9 | 3.9% |
| COc1ccc(Nc2nc(-c3cccc(Cl)c3)c3c(n2)-c2ccccc2OC3)cc1 | -1 | -0.5% |
| CCN(CC)c1nc2ccccc2nc1C(=O)Nc1cccc(C(C)=O)c1 | -5 | 0.6% |
| Nc1c(-c2nc(-c3ccc(F)cc3)cs2)c2ccccn2c1C(=O)c1ccc2c(c1)OCO2 | -14 | 1.3% |
| COc1cc(Cl)c(C)cc1NC(=O)Cn1cc(S(=O)(=O)N2CCN(c3ccccc3F)CC2)c2ccccc2c1=O | -25 | -2.2% |
| COc1ccc(CNC(=O)CCCN2C(=O)COc3ccc(C)cc32)cc1 | -14 | 0.1% |
| O=C(c1cccc(Cl)c1)N1CCC(c2nc3ccccc3o2)CC1 | -9 | 1.0% |
| Cc1cc(-c2ccccc2)nc2cc(C(=O)Nc3cc(C(F)(F)F)ccc3Cl)nn12 | 15 | -7.7% |
| CCN(C(=O)CSc1nc(-c2ccccc2)no1)c1cccc(C)c1 | 7 | 0.2% |
| CCN(CCCNC(=O)c1nn(-c2ccc(OC)c(Cl)c2)c(=O)c2c1c1ccccc1n2C)c1ccccc1 | 22 | 4.5% |
| CC(C)(C)c1ccc(S(=O)(=O)NCc2nc3cccnc3n2Cc2ccccc2Cl)cc1 | -8 | -4.5% |
| CCc1ccccc1NC(=O)CSCc1cnn(-c2ccccc2)c1-n1cccc1 | -4 | -6.5% |
| COc1cc(NC(=O)CC2C(=O)N(c3cccc(C)c3)C(=O)N2Cc2ccco2)cc(OC)c1 (stereo not drawn) | -18 | -1.0% |

The closing 4 entries of the part above lead into the next.
| mol | TRPML1 blocker | ClpP mod |
| --- | --- | --- |
| CCN(CCCNC(=O)c1nn(-c2ccc(OC)c(Cl)c2)c(=O)c2c1c1ccccc1n2C)c1ccccc1 | 22 | 4.5% |
| CC(C)(C)c1ccc(S(=O)(=O)NCc2nc3cccnc3n2Cc2ccccc2Cl)cc1 | -8 | -4.5% |
| CCc1ccccc1NC(=O)CSCc1cnn(-c2ccccc2)c1-n1cccc1 | -4 | -6.5% |
| COc1cc(NC(=O)CC2C(=O)N(c3cccc(C)c3)C(=O)N2Cc2ccco2)cc(OC)c1 (stereo not drawn) | -18 | -1.0% |
| Cc1ccc(OCC(=O)OCc2cc(=O)n3ccsc3n2)cc1C | -15 | -5.4% |
| Cc1cccc(N2C(=O)C(CC(=O)Nc3cccc(F)c3)N(Cc3cccs3)C2=O)c1 (stereo not drawn) | 10 | 1.3% |
| CCc1cccc(C)c1NC(=O)NC1COc2ccccc2C1 (stereo not drawn) | -3 | 1.3% |
| O=C(Nc1cc(C(F)(F)F)ccc1Cl)c1cc(S(=O)(=O)NCc2ccccc2)ccc1F | -6 | 4.1% |
| Cc1c(-c2cccc(NC(=O)Cc3ccccc3)c2)nc2ncccn12 | 1 | 3.9% |
| CC(C)CC(=O)Nc1nnc(SCc2cc(=O)n3ccccc3n2)s1 | 5 | -8.4% |
| Brc1cccc(-c2nc3ccc(Br)cn3c2Cc2ccsc2)c1 | 23 | 0.7% |
| CCOc1ccc(CNCc2c(C(=O)O)n(Cc3ccccc3F)c3cc(OC)ccc23)cc1 | 2 | -23% |
| Cc1oc(-c2ccccc2F)nc1CSc1nnc(C)n2c1cc1occc12 | 2 | -2.9% |
| Cc1ccc(Cn2c(C)c3cnn(CC(=O)N4CCN(c5cc(C)ccc5C)CC4)c(=O)c3c2C)cc1 | 46 | ? |
| COC(=O)c1ccc(NC(=O)CSc2nc(C)cc(C)c2C(=O)Nc2ccccc2)cc1 | -18 | -5.3% |
| CC(=O)Nc1ccc(-c2nnc3n(CC(C)C)c(=O)c4ccccc4n23)cc1 | 1 | 0.1% |
| O=C(NCc1ccc(F)cc1)c1c2c(nc3ccccc13)C(=O)N(C1CCCCC1)C2 | -1 | -2.8% |
| O=C(Nc1cccc(C(F)(F)F)c1)c1cc(S(=O)(=O)N2CCCC2)c[nH]1 | 8 | -27% |
| COc1ccccc1NC(=O)CCS(=O)(=O)c1cc2c3c(c1)CCN3C(=O)CC2 | 12 | -1.2% |
| Cc1ccc(NS(=O)(=O)c2cc3[nH]c(=O)c(=O)[nH]c3cc2C)cc1N(C)C | 6 | -2.0% |
| Cc1nn(-c2ccc(N3CCCCC3)nn2)c(C)c1CCC(=O)Nc1ccc(F)cc1F | -22 | 0.1% |
| Cc1cccn2c(=O)c(C(=O)NCc3cccc(F)c3)cnc12 | 15 | 5.0% |
| CCc1cccc2c(-c3ccccc3)nc(SCC(=O)Nc3ccc(OC)cc3)nc12 | 4 | 1.1% |
| COC(=O)C(NC(=O)CC(C)C)(Nc1nc2c(s1)CCCC2)C(F)(F)F (stereo not drawn) | 43 | -0.6% |
| Cc1csc2nc(-c3cccc(NC(=O)c4c(F)cccc4F)c3)cn12 | 11 | -5.7% |
| CC(C)Cn1c(=O)c2ccccc2n2c(CCC(=O)NC(C)c3ccccc3)nnc12 (stereo not drawn) | 21 | -5.5% |
| Cc1ccc2onc(CC(=O)Nc3cccc(C(F)(F)F)c3)c2c1 | -6 | 1.3% |
| COc1cc(CNCCSc2nnnn2C)ccc1OCc1ccc(C)cc1 | 15 | -1.8% |
| CCc1nnc(NC(=O)c2cc(=O)c3cc(C)c(C)cc3o2)s1 | -25 | 0.1% |
| COc1ccc(Cn2c(=O)n(-c3ccc(C)cc3)c(=O)c3c2c2cc(C)ccc2n3C)cc1 | -7 | 4.3% |
| CCC(=O)Nc1ccc2nc(SCCOc3ccc(C)cc3)sc2c1 | 12 | -9.7% |
| CCc1ccc(NC(=O)CN2C(=O)c3cccc4cccc2c34)cc1 | 33 | 4.0% |
| CC1CCN(c2nn3c(=O)c(C(=O)NC(C)C)cnc3s2)CC1 | 0 | 3.9% |
| Cc1ccc(C)c(NC(=O)C(=O)NCC(c2cccnc2)N2CCN(c3ccc(F)cc3)CC2)c1 (stereo not drawn) | 4 | -3.1% |
| COc1ccc(CN2CCc3nc(SCC(=O)Nc4cc(C)cc(C)c4)[nH]c(=O)c3C2)cc1 | 24 | -1.1% |
| CSc1nn(Cc2cccc(C)c2)c(N)c1S(=O)(=O)c1ccccc1 | -21 | 1.0% |
| COc1ccc(C(=O)Nc2ccc(-c3cc4ccccc4oc3=O)c(C)c2)cc1Br | -10 | 4.0% |
| COc1ccc(N2CC(c3nc(-c4cc(OC)c(OC)c(OC)c4)no3)CC2=O)cc1Cl (stereo not drawn) | -10 | -0.5% |
| Cc1ccc(Cl)cc1N1CCN(c2ncnc3onc(-c4ccc(F)cc4)c23)CC1 | -7 | -4.0% |
| COc1cc(-c2cc3n(C)c(C)c(CCC(=O)Nc4ccc(F)cc4)c(=O)n3n2)cc(OC)c1OC | 2 | -13% |
| CCc1nc2ccc(C(=O)NCCc3ccc(SC)cc3)cc2nc1CC | 14 | -2.8% |
| Cc1ccc(OCC(=O)N(Cc2ccco2)c2ccccn2)cc1 | 7 | -0.6% |
| O=C(CS(=O)(=O)c1cccc2nsnc12)N1CCN(c2ccc(F)cc2)CC1 | -5 | 0.4% |
| Cc1ccc(NC(=O)c2sc3nc(-c4ccc(F)cc4)ccc3c2N)cc1F | -11 | -5.5% |
| O=C(Nc1ccc(F)cc1)c1oc2ccccc2c1NC(=O)C1CCCCC1 | 6 | -7.8% |
| Cc1ccc2oc(-c3ccc(NC(=O)c4oc5ccc(Cl)cc5c4C)cc3)nc2c1 | 4 | 4.7% |
| COc1ccc(-c2cc(C)no2)cc1S(=O)(=O)N1CCc2ccccc21 | 72 | -1.7% |
| CCOC(=O)C1CCCN(C(=O)C2CCN(c3nnc(C)c4c(C)n(-c5ccccc5)nc34)CC2)C1 (stereo not drawn) | 3 | 3.7% |
| COC(=O)Cc1c(C)c2ccc3c(c2oc1=O)CN(Cc1ccccc1Cl)CO3 | 12 | 71% |
| C#CCOc1ccc(C2C(C(=O)OC)=C(C)NC3=C2C(=O)c2ccccc23)cc1OCC (stereo not drawn) | -11 | -0.4% |
| CCOc1ccc(NC(=O)CN2C(=O)C3(SCC(=O)N3c3ccc(F)cc3)c3ccccc32)cc1 (stereo not drawn) | -8 | 0.2% |
| Cc1ccc(CNC(=O)CCCN2C(=O)CCn3nc(-c4cn(C)c5ccccc45)cc32)cc1 | 1 | -1.5% |
